DT40 TDP1 no CPT: qHTS for Inhibitors of human tyrosyl-DNA phosphodiesterase 1 (TDP1): qHTS in cells in absence of CPT; DT40 Tdp1-/- hTDP1 cells, no CPT, ATP luminescence, 48 h; Potency, µM (top dose mostly 46.2 µM), inactives show at the top dose activity change, negative = growth inhibition, usual class: inhibitors; 420,000 tested, 15% active; further: nearly all actives have a fitted effect of over 55% in size
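Readout: luminescence from CellTiter-Glo after 30 min in the dark at RT. Cells: DT40 Tdp1-/- with stable hTDP1, 400/well. Exposure: compounds alone, ≥48 hr, 37 °C.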
TDP1 cell CPT: DT40-hTDP1 cell growth loss with CPT; chicken DT40 Tdp1-/-;hTDP1 cells + 20 nM CPT, ATP luminescence, 48 h; Potency, µM (doses to about 46.2 µM), for the others: top-dose activity change, negative = growth inhibition, most hits filed as inhibitors; 420,000 tested, 12% active; further: nearly all actives have a fitted effect of over 55% in size
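Chicken DT40 Tdp1-/- cells stably complemented with human TDP1 were seeded at 400 cells/well in medium containing 20 nM camptothecin, exposed to pin-transferred compounds, and grown at 37 °C for at least 48 hr. Viability was read as ATP luminescence.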
* marks the source's active call; other numbers are inactive results; ? = inconclusive; & = joins results of further samples; [ ] = dose if it differs, or a comment. The call rests on the fitted dose curve; in most records, active means well fitted inhibition curve with a large enough effect; inconclusive means small, poorly fitted or top-dose-only effect; inactive means flat fitted curve, though single readings scatter. On the % scale 0 is the no-effect control and ±100 the full control effect; potency means the concentration at half of the fitted maximal effect. The list is partial; most or all hits stand in other tables.

#1 COC(=O)C1(C)NC(c2ccccc2C)C2C(=O)N(c3ccc(F)cc3)C(=O)C21 (centres undefined)
#2 COc1ccc(O)c(-c2[nH]ncc2C(=O)c2ccccc2C)c1
#3 CCN(C(=O)COC(=O)CCc1ccccc1OC)c1c(N)n(Cc2ccccc2)c(=O)[nH]c1=O
#4 Cn1cccc1Cc1nnc(SCC(=O)NC2CCCC2)n1CCc1ccccc1
#5 CCc1cccc(CC)c1NC(=O)CSc1nnc(C(C)C)n1CC
#6 CCc1cc(C(=O)NNC(=S)Nc2cccc(C)c2)cs1

Screen / compound no.,1,2,3,4,5,6
DT40 TDP1 no CPT,-1%,-25%,-5%,-29%,-2%,-11%
TDP1 cell CPT,0%,-2%,-2%,-24%,6%,-21%

#7 CN1C2C=C(N(CCc3ccccc3)C(=O)c3ccc(Cl)cc3)CC1CC2 (centres undefined)
#8 O=C(CO)N/N=C/c1ccccc1F
#9 CCCc1[nH]nc2c1C(CCc1ccccc1)C(C#N)=C(N)O2 (centres undefined)
#10 O=C(CSc1nnc(CNC(=O)c2ccccc2)o1)Nc1ccc2c(c1)OCO2
#11 O=C(CSc1nc2ccsc2c(=O)n1Cc1ccc(C(=O)O)cc1)NCC1CCCO1 (centres undefined)
#12 Cc1ccc(NC(=O)NCCN2CCN(C(=O)Nc3ccc(C)cc3)CC2)cc1

Screen / compound no.,7,8,9,10,11,12
DT40 TDP1 no CPT,-21%,-7%,-27%,-15%,-4%,-14%
TDP1 cell CPT,-20%,-21%,-12%,5%,5%,-9%

#13 O=C(NCc1ccncc1)C(=O)N/N=C/c1cccnc1
#14 O=C(/C=C/c1ccccc1)N1CCC[C@H]1CO
#15 COc1ccc(NC(=O)CN(C)S(=O)(=O)c2ccccc2)cc1
#16 COc1ccc(NC(=S)N2CCN(S(=O)(=O)c3ccc(OC)cc3)CC2)cc1
#17 Cc1ccc2nc(NC(=O)COC(=O)CSc3nc(C)cc(C)n3)sc2c1
#18 COC(=O)CN(C#N)c1nc(C)cc(C)n1

Screen / compound no.,13,14,15,16,17,18
DT40 TDP1 no CPT,0%,8%,-15%,-7%,2%,1%
TDP1 cell CPT,10%,-2%,-11%,-5%,-24%,-3%

#19 CCC(C)[C@H](NC(=O)NCc1cccc(OC)c1)C(=O)OC (some centres undefined)
#20 COc1cc(C(=S)N2CCOCC2)ccc1OC(=O)c1cc([N+](=O)[O-])c(C)c([N+](=O)[O-])c1
#21 CCCc1c(O)nc(SCCN(CC)CC)n(C(=O)c2ccccc2)c1=O
#22 CC1=Nc2cccc3cccc(c23)N1C
#23 Cn1c(=O)c2c(nc(Sc3ccccc3N)n2C)n(C)c1=O
#24 O=C1[C@@H]2CSCN2C(=O)CN1Cc1cccc(C(F)(F)F)c1

Screen / compound no.,19,20,21,22,23,24
DT40 TDP1 no CPT,1%,?,-11%,-6%,-16%,-1%
TDP1 cell CPT,-3%,-9%,-17%,1%,-2%,12%

Rewritten field by field: part of the list above
22	CC1=Nc2cccc3cccc(c23)N1C
  DT40 TDP1 no CPT: -6%	TDP1 cell CPT: 1%

23	Cn1c(=O)c2c(nc(Sc3ccccc3N)n2C)n(C)c1=O
  DT40 TDP1 no CPT: -16%	TDP1 cell CPT: -2%

24	O=C1[C@@H]2CSCN2C(=O)CN1Cc1cccc(C(F)(F)F)c1
  DT40 TDP1 no CPT: -1%	TDP1 cell CPT: 12%

Following part:
#25 COC(=O)CCCC1=CC2=CC(=O)C(C)(OC(=O)c3cccs3)C(=O)C2=CN1Cc1ccccc1 (centres undefined)
#26 Cc1ccc(CC2S/C(=C(/C#N)C(=O)N3CCOCC3)N(c3ccccc3)C2=O)cc1 (centres undefined)
#27 CS(=O)(=O)N1CCCC(C(=O)NCCc2ccccc2)C1 (centres undefined)
#28 COc1ccc(S(=O)(=O)N2CCN(C(=O)c3cnc(C)cn3)CC2)cc1
#29 COc1ccc(N2C(=O)CCC2(C#N)c2ccc(Br)cc2)cc1 (centres undefined)
#30 CC(C)C(C(=O)Nc1sc2c(c1C#N)CCCCC2)N1C(=O)c2ccccc2C1=O (centres undefined)

Screen / compound no.,25,26,27,28,29,30
DT40 TDP1 no CPT,-14%,-17%,-3%,-23%,-3%,3%
TDP1 cell CPT,-19%,-26%,-17%,-7%,-5%,-4%

#31 CC(=O)c1c(C)[nH]c(C(=O)NCCCN2CCCC2)c1C
#32 C/C(=N\NC(=O)Cn1ccc(C(F)(F)F)n1)c1ccc2c(c1)OCO2
#33 CNC(=O)CSc1nnnn1-c1ccc2c(c1)OCCO2
#34 CCn1c(SCc2nc(CC(=O)Nc3ccccc3OC)no2)nnc1-c1cccs1
#35 Cc1[nH]c2ccccc2c1/C=C(\C#N)C(=O)NCC1CCCO1 (centres undefined)
#36 COc1ccc(CO/N=C/c2c(C)[nH]c(=O)[nH]c2=O)cc1

Screen / compound no.,31,32,33,34,35,36
DT40 TDP1 no CPT,6%,?,0%,-27%,-11%,-22%
TDP1 cell CPT,-4%,-5%,-2%,-27%,?,?

#37 Cc1ccc(S(=O)(=O)c2nc(NC3CCS(=O)(=O)C3)sc2Cl)cc1 (centres undefined)
#38 O=C(/C=C/c1ccco1)N(Cc1cccc(Br)c1)C1CCS(=O)(=O)C1 (centres undefined)
#39 COc1ccc(-c2ccc(SCC(=O)NCC3CCCO3)nn2)cc1OC (centres undefined)
#40 O=C(NNC(=O)c1cccs1)c1ccccc1
#41 O=C(CSc1n[nH]c(=O)n1C1CC1)Nc1ccc(OC(F)(F)F)cc1
#42 CCn1nnc2cc(C(=O)OCC(=O)N(C)Cc3cccc(F)c3)ccc21

Screen / compound no.,37,38,39,40,41,42
DT40 TDP1 no CPT,-22%,?,-18%,-3%,-16%,9%
TDP1 cell CPT,1%,-29%,-13%,-2%,0%,-3%

#43 COc1ccc(N2C(=O)CCC(C(=O)NCc3cccnc3)C2c2ccc(OC)c(OC)c2)cc1 (centres undefined)
#44 CCN1CCN(CC(=O)Nc2ccc(C)c(Br)c2)CC1
#45 Fc1ccc(-c2nnc3ccc(N4CCCC4)nn23)cc1
#46 COC(=O)C1CCCN1C(C(=O)NC1CCCCC1)c1ccc(Cl)cc1 (centres undefined)
#47 NC(=O)C1(N2CCCCC2)CCN(C2CC(=O)NC2=O)CC1 (centres undefined)
#48 CCOc1ccc(N2CC(C(=O)NCCc3ccc(OC)c(OC)c3)CC2=O)cc1 (centres undefined)

Screen / compound no.,43,44,45,46,47,48
DT40 TDP1 no CPT,-15%,-26%,?,-25%,2%,-9%
TDP1 cell CPT,-20%,-16%,-2%,?,-1%,-8%

#49 COc1cccc(CNC(=O)C2CCCN(S(=O)(=O)c3cnc[nH]3)C2)c1 (centres undefined)
#50 O=c1[nH]ncc2c3ccccc3n(Cc3ccccc3)c12
#51 CC(C)(C)OC(=O)N[C@@H](Cc1ccccc1)C(=O)N1CCC(C(=O)N[C@@H](CCC(N)=O)C(=O)O)CC1
#52 Cc1ccc(CSc2nnc(C)c(=O)[nH]2)cc1
#53 CCCCC(=O)Nc1ccc(Cl)cn1
#54 O=C(CNC(=S)N(Cc1ccccc1F)C1CCCCC1)NC1CC1

Screen / compound no.,49,50,51,52,53,54
DT40 TDP1 no CPT,-6%,?,-5%,-18%,3%,-10%
TDP1 cell CPT,-11%,3%,-3%,-15%,2%,-22%

#55 CC1CCN(c2nc3ccc(C(=O)NC(C)C)cc3s2)CC1
#56 CC1CCN(C(=O)CCc2ccc(S(=O)(=O)NC(C)(C)C)cc2)CC1
#57 CC(=O)c1c(N)nc2n(c1=O)CCCCC2
#58 Cc1cc(Nc2ccccc2)n(-c2ccc(C(=O)O)cc2)n1
#59 Cc1c(Cl)c([N+](=O)[O-])nn1CC(=O)Nc1c(C)n(C)n(-c2ccccc2)c1=O
#60 O=[N+]([O-])c1ccc(/C=N/Nc2ccccn2)cc1

Screen / compound no.,55,56,57,58,59,60
DT40 TDP1 no CPT,-24%,?,-30%,33%[activator],0%,-1%
TDP1 cell CPT,-23%,-7%,-11%,21%,7%,-13%

#61 CN(C)c1ccc(N2C(=O)CC(Nc3ccc(N4CCOCC4)cc3)C2=O)cc1 (centres undefined)
#62 CC(C)C(OC(=O)c1ccco1)C(=O)NC1CCCCC1 (centres undefined)
#63 COc1ccc(S(=O)(=O)NCc2ccccc2)cc1
#64 CCN(CC)S(=O)(=O)c1cccc(-c2csc(C)n2)c1
#65 c1cncc(-c2noc(-c3ccc4ccccc4c3)n2)c1
#66 Cc1cc(C(=O)OC2CCOC2=O)c2ccccc2n1 (centres undefined)

Screen / compound no.,61,62,63,64,65,66
DT40 TDP1 no CPT,2%,?,-15%,-18%,-12%,3%
TDP1 cell CPT,-4%,13%,6%,-22%,-23%,1%

#67 CCOC(=O)C1CCN(C(=O)C2CCN(S(=O)(=O)c3cc(Cl)ccc3Cl)CC2)CC1
#68 Cc1c(N(C)C(=O)c2ccco2)c(=O)n(-c2ccccc2)n1C
#69 COc1ccc(-c2cc(C(=O)Nc3ccc4c(c3)OCO4)no2)cc1
#70 CC(=O)Nc1c(C(=O)c2ccccc2)oc2ccccc12
#71 Cc1cccc(C)c1NC(=O)CSc1nnc([C@H](C)NC(=O)OC(C)(C)C)o1
#72 COC(=O)CSC1=C(C#N)C(c2ccc(Cl)cc2)C(C(=O)OC)C(=O)N1 (centres undefined)

Screen / compound no.,67,68,69,70,71,72
DT40 TDP1 no CPT,-27%,-19%,-10%&2%,-27%,12%,-11%
TDP1 cell CPT,?,-9%,3%&8%,?,-3%,-20%

#73 O=C1c2ccccc2C(=O)N1n1cccc1
#74 O=C(N/N=C/c1cccc(OCc2ccccc2)c1)c1cccs1
#75 Nc1nc(CN2CCN(c3cccc(Cl)c3)CC2)nc(N2CCCc3ccccc32)n1
#76 CC1(C)CC(=O)C=C(Nc2ccc(Br)cn2)C1
#77 CCOc1ccccc1Nc1ccc(C(=O)O)cc1[N+](=O)[O-]
#78 O=C(Nc1ccc(Cl)cc1)OCc1cc(-c2ccccc2Cl)on1

Screen / compound no.,73,74,75,76,77,78
DT40 TDP1 no CPT,0%,11%,2%,-16%,8%,-16%
TDP1 cell CPT,-6%,4%,0%,-7%,-4%,-15%

2 of the compounds above, with values under each structure:
Each structure is followed by: DT40 TDP1 no CPT | TDP1 cell CPT
76	CC1(C)CC(=O)C=C(Nc2ccc(Br)cn2)C1
 : -16% | -7%
74	O=C(N/N=C/c1cccc(OCc2ccccc2)c1)c1cccs1
 : 11% | 4%

The main list resumes, repeating the two entries before the break.
#77 CCOc1ccccc1Nc1ccc(C(=O)O)cc1[N+](=O)[O-]
#78 O=C(Nc1ccc(Cl)cc1)OCc1cc(-c2ccccc2Cl)on1
#79 Cc1ccc(NC(=O)CCC(=O)NNS(=O)(=O)c2ccc(Cl)cc2)cc1C
#80 Cc1cccc(OCC(=O)OC(C)C(=O)Nc2ccc(Cl)cn2)c1 (centres undefined)
#81 CN(/N=C/Cc1nnnn1-c1ccc(Cl)cc1)c1ccccc1
#82 COc1ccc(N2CCN(C(=O)COC(=O)CCS(=O)(=O)c3ccc(C)cc3)CC2)cc1
#83 O=C(CNC(=O)c1ccc(Br)cc1)NCC(=O)OCC(=O)c1ccc(F)cc1
#84 CN(C)S(=O)(=O)c1cccc(C(=O)OCC(=O)Nc2sccc2C#N)c1

Screen / compound no.,77,78,79,80,81,82,83,84
DT40 TDP1 no CPT,8%,-16%,0%,-15%,?,-15%,13%,-8%
TDP1 cell CPT,-4%,-15%,-2%,-15%,-4%,-23%,22%,-10%

#85 CC(=O)Nc1ccc(S(=O)(=O)NCCNC(=O)c2ccccc2F)cc1
#86 COc1ccc(OC)c(S(=O)(=O)NC(C)c2cnn(-c3ccccn3)c2C)c1 (centres undefined)
#87 COc1cccc(OC)c1C(=O)Nc1ccc(S(=O)(=O)Nc2cc(C)nc(C)n2)cc1
#88 COc1ccccc1C(c1nnnn1CC1CCCO1)N1CCC(C(N)=O)CC1 (centres undefined)
#89 CCOC(=O)N1CCC(NC(=O)CCC(=O)N2CCOc3ccc(C)cc32)CC1
#90 CCC(C)N(C(=O)COC(=O)CNC(=O)c1ccccc1F)C1CCS(=O)(=O)C1 (centres undefined)

Screen / compound no.,85,86,87,88,89,90
DT40 TDP1 no CPT,-27%,-11%,-2%,?,-20%,-2%
TDP1 cell CPT,-1%,-23%,12%,0%,-14%,12%

#91 COc1cc2[nH]c(=O)n(CCC(=O)NC3CCN(Cc4ccccc4)CC3)c(=O)c2cc1OC
#92 CSc1nc(-c2ccccc2)ccc1C(N)=O
#93 CC12CCCCN1CCCc1c2[nH]c2ccccc12 (centres undefined)
#94 Nc1nnc(SCC(=O)OCC(=O)Nc2ccccc2F)s1

Screen / compound no.,91,92,93,94
DT40 TDP1 no CPT,5%,-16%,-28%,4%
TDP1 cell CPT,-9%,-6%,?,4%
